HPGD block: blocks human HPGD enzyme activity. Potency, µM, for the others: at the highest dose activity change, negative = inhibition, most hits filed as inhibitors. P15428. 150,000 compounds, 4.3% hits. purified HPGD, NADH fluorescence kinetic, PGE2 substrate; active = well fitted inhibition curve with a large enough effect (not every such curve was filed as active); inconclusive = small, poorly fitted or top-dose-only effect, or another doubt; inactive = no such curve, though single readings can be large or run the other way;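 note: top concentration of the series not given in the record; plate controls included wells without enzyme; inactives centre near -10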
Target sequence (P15428 whole entry, looked up): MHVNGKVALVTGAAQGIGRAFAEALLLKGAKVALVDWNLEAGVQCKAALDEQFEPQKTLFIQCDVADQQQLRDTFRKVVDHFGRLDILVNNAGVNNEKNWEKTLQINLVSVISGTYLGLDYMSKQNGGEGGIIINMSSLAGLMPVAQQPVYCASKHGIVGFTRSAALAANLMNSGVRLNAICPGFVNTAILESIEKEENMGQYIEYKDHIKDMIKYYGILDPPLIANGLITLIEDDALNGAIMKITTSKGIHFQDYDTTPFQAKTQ
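20 nM HPGD preincubated 15 min at room temperature with compound in 50 mM Tris-HCl pH 8, 0.01% Tween 20. Started with 1 mM NAD+ and 30 uM prostaglandin E2; NADH fluorescence (360/450 nm) read 5 times over 30-s intervals, last minus first.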
Active calls of the source: *; ? = inconclusive; & = joins results of further samples. % is set by controls: 0 for no effect and ±100 for the full control effect; potency is the fitted concentration of half-maximal effect.

Compound	HPGD block
CC1=Nn2c(nc(-c3ccccc3)c2-c2ccccc2)NC(=O)C1Br (configuration not stated)	-27%
O=c1c2ccccc2nc(SCc2cn3ccsc3n2)n1-c1ccc(F)cc1	-10%
O=C(Oc1ccc2ccccc2c1)c1cncc(Br)c1	-14%
CCCC1CC(c2csc(N)n2)CCO1 (configuration not stated)	-5%
CCOc1ccc(NC(=O)CCN2CCN(S(=O)(=O)c3cc(Cl)ccc3OC)CC2)cc1	-5%
O=C(CCCCCCN1C(=O)c2ccccc2C1=O)Nc1nccs1	7.9µM*
Cn1c(/N=C/c2ccc3c(c2)OCO3)nc2ccccc21	-17%
CCOc1ccc(N=C2NC(=O)S/C2=C\c2ccc(OC)cc2)cc1	-20%
CN(C)C(=O)c1cn(-c2ccccc2)nc1-c1cccs1	1%
CC1CN(c2oc(Cc3cccc4ccccc34)nc2C#N)CC(C)O1 (configuration not stated)	-11%
[N-]=[N+]=NCC1OC(n2cnc3c(=O)[nH]c(N)nc32)C(O)C1O (configuration not stated)	-9%
Cc1cc(C)c(C#N)c(SCC(=O)Nc2ccc(S(=O)(=O)Nc3onc(C)c3C)cc2)n1	?

As entered above.
Result of O=c1c2ccccc2nc(SCc2cn3ccsc3n2)n1-c1ccc(F)cc1 under HPGD block: -10%
Result of O=C(CCCCCCN1C(=O)c2ccccc2C1=O)Nc1nccs1 under HPGD block: 7.9µM*
Result of CCOc1ccc(N=C2NC(=O)S/C2=C\c2ccc(OC)cc2)cc1 under HPGD block: -20%
Result of Cn1c(/N=C/c2ccc3c(c2)OCO3)nc2ccccc21 under HPGD block: -17%

(next part)
Compound	HPGD block
CCOC(=O)Cc1csc(SCc2nc3sc4c(c3c(=O)[nH]2)CCC4)n1	-3%
CC(=O)Nc1nc(-c2ccc(Cl)cc2)ns1	-13%
N#Cc1cc(N)ccc1Sc1ccc(Cl)cc1	?
COc1ccc(-c2nn(-c3ccccc3)cc2/C=N/NC(=O)c2cccc(S(=O)(=O)Nc3ccccc3OC)c2)cc1	?
COCCn1c(SCC(=O)Nc2ncc(Cl)c(C)c2Cl)nc2ccccc21	-6%
COc1ccc(COc2cc(-c3cccc(OC)c3)nc3ccc(NC(=O)c4ccccc4)cc23)cc1	?
O=C1c2ccccc2NC(c2ccc3c(c2)OCO3)N1O (configuration not stated)	-19%
COc1c2ccoc2c(OC)c2oc(=O)ccc12	?
CCOc1ccc(Cc2n[nH]c(=S)n2N)cc1	?
CCOC(=O)N1CCN(C(=O)c2ccc3nc(N4CCC(C)CC4)sc3c2)CC1	?
O=C(NCCCn1ccnc1)C(F)(F)C(F)(F)C(=O)NCCCn1ccnc1	-6%
COc1ccccc1/C=C/C=N/n1c(-c2ccc(C)cc2)n[nH]c1=S	1.4µM*
CC(=O)OC1CC[C@@]2(C)C3=CC(=O)[C@]4(C)C(CC5OC6(OCC(C)CC6Br)C(C)C54)C3CC[C@H]2C1 (some centres not stated)	-6%
O=C(N/N=C/c1cccnc1)c1cc(-c2cccs2)nc2ccccc12	?
O=C(Nc1ccccc1)c1ccc(NCc2ccco2)c(S(=O)(=O)N2CCOCC2)c1	-13%
Cc1cc(C)cc(OCC(=O)NN2C(=O)c3ccccc3C2=O)c1	-13%
O=C(NCc1ccccc1)/C(NC(=O)c1ccccc1)=C(/Sc1ccccn1)c1ccccc1	-6%
CCOc1ccccc1-c1c2cc(O)c(=O)cc-2oc2cc(O)c(O)cc12	18µM*
CC(=O)C[C@H](c1ccc([N+](=O)[O-])cc1)c1c(O)c2ccccc2oc1=O	-11%
COc1ccc(NCc2ccccc2[N+](=O)[O-])cc1OC	-6%
C=C(C)c1cccc(C(C)(C)NC(=O)NCC2COCCO2)c1 (configuration not stated)	-5%
CC1CCCN(S(=O)(=O)c2ccc(S(=O)(=O)N3CCC4(CC3)OCCO4)cc2)C1 (configuration not stated)	-2%
Oc1ccc(/C=N/Nc2ncnc3c2ncn3Cc2ccccc2)cc1O	25µM*
CCn1cnc2cc(NCc3cccc(OC)c3O)ccc21	-25%
COC(=O)c1ccc(Oc2ccc3nnc(C)n3n2)cc1	-14%
COc1ccc(S(=O)(=O)NC2CCCCC2)cc1C	-14%
O=C(CC(C(=O)O)C1CCCO1)Nc1cccc(C(F)(F)F)c1 (configuration not stated)	-6%
COCCOC(=O)c1c(NC(=O)CN2CCOCC2)sc(C(N)=O)c1C	3%
O=C(Cn1cc([N+](=O)[O-])cn1)N1CCc2ccccc21	-11%
CCC(=O)N(Cc1cc2ccc(C)cc2n2nnnc12)C1CCCCC1	-3%
CCc1ccc(C2=NN(c3ccc(S(N)(=O)=O)cc3)C(c3ccc(F)cc3)C2)cc1 (configuration not stated)	?
Cc1cccc(C)c1NC(=S)N=Nc1c(O)n(C)c2ccc(S(=O)(=O)N3CCOCC3)cc12	-25%
Cc1ccc(C(=O)NCc2ccc3c(c2)OCO3)cc1S(=O)(=O)N1CCCCC1	-11%
COc1cc(/C=N/NC(=O)C2COc3ccccc3O2)cc(OC)c1OC (configuration not stated)	-24%
O=C(c1cn(-c2ccccc2)nc1-c1ccc(F)cc1)N1CCCCC1	-7%
Fc1ccc(CSc2nnc(-c3cnccn3)n2Cc2ccco2)cc1	-4%
COc1ccc(N2CCN(C3CC(=O)N(c4ccc5c(c4)OCCO5)C3=O)CC2)cc1 (configuration not stated)	-4%
Cc1[nH][nH]c(=O)c1C(c1ccc(O)c([N+](=O)[O-])c1)c1c(C)[nH][nH]c1=O	-7%
S=C1NCCOCCNC(=S)NCCOCCOCCOCCN1	-5%
CCN(CC)CCOc1ccc(/C(=C(\Cl)c2ccccc2)c2ccccc2)cc1	-6%&0%
Cc1cc(C)nc(SCNC(=O)c2ccc(Cl)cc2)n1	28µM*
CCCCCNC(=O)c1ccc2c(=O)n(CC3CCCO3)c(=O)[nH]c2c1 (configuration not stated)	-25%
COc1ccc(NC(=O)c2ccc(C(=O)c3cc(OC)ccc3OC)cc2)cc1	1%
Cc1ccc(-c2nn(CC(C)(C)C)c3ncnc(N)c23)cc1	-9%
Cn1ccnc1-c1nc2ccccc2[nH]c1=O	-16%
O=C(COC(=O)CSCC(=O)N1CCCCC1)NCc1ccc(F)cc1	-2%
Cc1ccc(S(=O)(=O)N(CC(=O)N2CCN(c3ccc(F)cc3)CC2)C2CCCCC2)cc1	-9%
C=CCNC(=O)c1onc(CSc2ccccc2CC)c1C(=O)O	?
Cc1noc(C)c1S(=O)(=O)N1CCN(C(c2ccccc2)c2ccc(Cl)cc2)CC1 (configuration not stated)	-8%
Cc1noc(NS(=O)(=O)c2ccc(NC(=O)CSc3nc4ccccc4[nH]3)cc2)c1C	-19%
Cc1ccc(CN(Cc2cc3cccc(C)c3[nH]c2=O)C(=O)N(C)C)cc1	0%
CCOC(=O)C(=CNc1cc(C)ccn1)C(=O)OCC	-4%
O=C(NC1CCCC1)c1csc2c1CCCC2	16µM*
N#CCc1nn(-c2ccccc2)c(N)c1C#N	-9%
COc1ccccc1-c1nnc(SCC(=O)Nc2ccccc2)o1	?
CC(C)n1c(-c2ccccc2)nc(=S)c2c1CCCC2	-11%
CCOc1nc(C)nc(NC(=O)NS(=O)(=O)c2ccccc2Cl)n1	-2%
CCOC(=O)c1c(C)[nH]c(C)c1C(=O)CSc1nc2ccccc2c(=O)n1-c1ccc(C)cc1	-13%
CCN(CC)CCn1c(O)c(N=O)c2ccccc21	-9%
O=C(NCC(c1cccnc1)N1CCN(c2ccc(F)cc2)CC1)OCc1ccccc1 (configuration not stated)	-22%

Other records:
Compound	HPGD block
CCOC(=O)c1cnn(-c2ncnc3sc4c(c23)CCC4)c1N	7.9µM*
O=C(Cn1cnc2cc([N+](=O)[O-])ccc2c1=O)Nc1ccc2c(c1)CCC2	-16%
Cc1noc(C)c1C(=O)N1CCC2(CCN(Cc3ccncc3)CC2)CC1	-8%
Cc1cccc(NCc2nc3ccccc3n2C)c1	-12%
Cc1ccc(CNC(=O)Cc2ccc(-n3cccc3)cc2)cc1	-4%
CCCC1Cc2nc(N3CCCCC3)c(C#N)cc2CO1 (configuration not stated)	?
CCC(=O)Nc1c2c(nn1-c1cccc(Cl)c1)CSC2	1%
Cc1nc(SCc2cccc(Oc3ccccc3)c2)n[nH]1	-4%
O=C1CN(c2ccc(Br)cc2)C(=O)N1CC(=O)N1CCCc2ccccc21	-9%
CC1Cc2cc(/C(O)=C3/C(=O)C(=O)N(CCN4CCOCC4)C3c3cccc(Cl)c3)ccc2O1 (configuration not stated)	28µM*
O=C(C(c1ccccc1)c1ccccc1)N1CCCc2ccccc21	1%
C=CCn1c(=O)c2c(nc(Br)n2Cc2ccccc2Cl)n(C)c1=O	-9%

Structures shown so far that contain bromine (5):
Compound	HPGD block
CC1=Nn2c(nc(-c3ccccc3)c2-c2ccccc2)NC(=O)C1Br (configuration not stated)	-27%
O=C(Oc1ccc2ccccc2c1)c1cncc(Br)c1	-14%
CC(=O)OC1CC[C@@]2(C)C3=CC(=O)[C@]4(C)C(CC5OC6(OCC(C)CC6Br)C(C)C54)C3CC[C@H]2C1 (some centres not stated)	-6%
O=C1CN(c2ccc(Br)cc2)C(=O)N1CC(=O)N1CCCc2ccccc21	-9%
C=CCn1c(=O)c2c(nc(Br)n2Cc2ccccc2Cl)n(C)c1=O	-9%

(continued)
Compound	HPGD block
O=C(CN(CC1CCCO1)S(=O)(=O)c1ccc(S(=O)(=O)NC2CC2)cc1)Nc1ccccc1 (configuration not stated)	-22%
COc1cc(OC)c2c(c1)OC(=O)CC2c1cc(OC)c(OC)c(OC)c1 (configuration not stated)	-12%
Cc1ccc(C(=O)NC(=S)Nc2ccc(S(=O)(=O)N3CCN(C)CC3)cc2)cc1	-12%
CN(C(=O)CSc1nnc(-c2ccccc2)c(-c2ccccc2)n1)C1CCS(=O)(=O)C1 (configuration not stated)	-9%
CNC(=O)c1cc2c(s1)CCCCCC2	-10%
CCOC(=O)c1ccc(NC(=O)CCc2c(C)nc3ncnn3c2C)cc1	?
CCCc1nnc(NC(=O)CN2C(=O)C3C4C=CC(C4)C3C2=O)s1 (configuration not stated)	-16%
C/C(=N\NC(=O)CCc1c[nH]c2ccccc12)c1ccc([N+](=O)[O-])cc1	-9%
CCCCCNC1=CC(=O)CC(c2ccccc2)C1 (configuration not stated)	-20%
O=C(O)c1sccc1Oc1ccc(F)cc1[N+](=O)[O-]	-16%
Cc1cc(=O)n2cc(-c3ccccc3)nc2[nH]1	?
O=C(O)c1c(-c2nccc3ccccc23)[nH]c(-c2ccccc2)c1S(=O)(=O)O	-12%
COc1ccc(-n2ncc3c(NCc4ccc5c(c4)OCO5)ncnc32)cc1	?
Cc1cc(Oc2ccc(Cl)cc2)nc(-c2ccccc2O)n1	-20%
Cc1cccc(NC(=O)Nc2cccc(Oc3c(F)c(F)c(F)c(F)c3F)c2)c1	-8%
CCOc1ccccc1OCCOCCOc1c(Cl)cccc1Cl	-12%
O=C(CSc1nnnn1-c1cccc2c1CCCC2)N1CCCCC1	?
COc1ccc(NC(=S)N(CCc2c(C)[nH]c3ccc(C)cc23)Cc2cccnc2)cc1	-19%
CCOC(=O)C(CCCOc1ccc(C(C)CC)cc1)C(=O)OCC (configuration not stated)	-6%
CC1=CC(=O)[C@@H]2C[C@H]1C2(C)C	3%
CCS(=O)(=O)N1CCN(c2ccccc2F)CC1	1%
O=C(CNC(=O)/C(=C/c1ccccc1)NC(=O)c1ccc(Br)cc1)OCc1ccccc1	-21%
O=C(N1CCOCC1)N1CCCN(C(=O)N2CCOCC2)CC1	6%
S=C(NCCN1CCOCC1)Nc1cccc2ccccc12	-19%
COc1ccc(-n2c(CNc3ccc(C)cc3)nnc2SCC(=O)Nc2nc(-c3ccccc3)cs2)cc1	-4%
O=C(O)CCCC(=O)N1CC(=O)Nc2ccccc21	0%
O=C(CNS(=O)(=O)c1c(Cl)cccc1Cl)OCC(=O)N1CCN(c2ccccc2)CC1	-7%
CCC(c1nnc(SCC(=O)Nc2nnc(-c3ccccc3)o2)n1Cc1ccccc1)N(C)C (configuration not stated)	-16%
Cc1ccc(NC(=O)c2ccc(Cl)c(N3C(=O)C=CC3=O)c2)cc1	3.5µM*
CC1=C(C(=O)OCc2ccc3c(c2)OCO3)C(c2ccc(F)cc2)NC(=O)N1 (configuration not stated)	4%
Cc1ccc(-c2nnc(Nc3ccc4c(c3)OCO4)c3ccccc23)cc1S(N)(=O)=O	-1%
CC(=O)c1cccc(NC(=O)c2c(F)c(F)c(F)c(F)c2F)c1	-22%
COc1ccc(CNC(=O)COC(=O)C2CC3C=CC2C3)cc1 (configuration not stated)	?
O=C(NCCC1=CCCCC1)C1CCN(S(=O)(=O)c2cccc3nonc23)CC1	-11%
COc1ccc(N2CC(NC(=O)NCC(C)C)CC2=O)cc1 (configuration not stated)	-4%
CCCCC(=O)Nc1nc2ccc3nc(C)sc3c2s1	-16%
O=C(COc1ccccc1)N/N=C/c1ccc([N+](=O)[O-])o1	-12%
CC(=O)CCc1ccc(OCC(O)CNC2CCCc3ccccc32)cc1 (configuration not stated)	-8%
Cc1nc2sc(C(c3cccc(F)c3)N3CCCCC3)c(O)n2n1 (configuration not stated)	-7%
O=C(NCc1ccc(N2CCCC2=O)cc1)Nc1cccc(Cl)c1	?
COc1ccc(Cl)cc1NC(=O)C12CCC(C)(C(=O)O1)C2(C)C (configuration not stated)	-11%
O=C(O)c1ccc(/C=N/N2CCN(Cc3ccccc3)CC2)cc1	-1%

This is a subset; the hit share may differ from the screen's.
